# Screens: PubChem, National Center for Advancing Translational Sciences (NCATS)
# Cruzain noTriton – inhibitors of Trypanosoma cruzi cruzain without detergent; Potency, µM, for inactives: max response, negative = inhibition, actives largely listed as inhibitors; purified cruzain, Z-FR-AMC fluorescence, no detergent; 200,000 compounds, 2.3% hits; P25779;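 note: plate controls were enzyme without inhibitor for no effect and buffer without enzyme for full effect; nearly all actives have a fitted effect of over 40% in size; top concentration of the series not given in the record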
# Target sequence (P25779 123-467 limits assumed): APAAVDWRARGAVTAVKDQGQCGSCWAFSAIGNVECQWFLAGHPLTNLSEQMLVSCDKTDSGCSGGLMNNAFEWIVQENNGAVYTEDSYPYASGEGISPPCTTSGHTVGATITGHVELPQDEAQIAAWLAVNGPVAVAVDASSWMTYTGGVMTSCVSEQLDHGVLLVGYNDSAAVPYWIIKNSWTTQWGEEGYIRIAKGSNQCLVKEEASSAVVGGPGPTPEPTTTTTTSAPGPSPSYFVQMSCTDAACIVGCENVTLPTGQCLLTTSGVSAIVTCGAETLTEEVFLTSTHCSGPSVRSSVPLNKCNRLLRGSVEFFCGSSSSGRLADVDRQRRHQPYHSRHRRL
#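 Purified cruzain at 1.5 nM, pre-incubated 15 min with compound at room temperature in 100 mM sodium acetate pH 5.5, 5 mM DTT, 0.00005% Triton X-100. Reaction started with 2 uM Z-FR-AMC; AMC fluorescence increase over 60 s gives rate.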
# StopGo reporter – FMDV 2A StopGo reporter, luciferase signal; 410,000 compounds, 1.2% hits; Potency, µM (series often up to 57.9 µM), without a hit: at the highest dose signal change, negative = less light; human cells with a luciferase reporter of 2A StopGo recoding; control for the full effect not named in the record; active = well fitted falling curve with a large enough effect; inconclusive = small, poorly fitted or top-dose-only effect; inactive = no such curve, though single readings can be large or run the other way; tested in HEK293T cells; note: % is set by controls: 0 for no effect and ±100 for the full control effect; nearly all actives have a fitted effect of over 45% in size; luciferase light after 4 h
# LASV entry inh – inhibitors of Lassa virus binding or cell entry | Lassa virus pseudotype entry inhibition, cell reporter; control for the full effect not named in the record | Potency, µM (highest dose often 37.9 µM), inactives show at the highest dose activity change, negative = inhibition, hits mostly inhibitors | 300,000 compounds, 1.2% hits | AID 540256; active means well fitted inhibition curve with a large enough effect; inconclusive means small, poorly fitted or top-dose-only effect, or effect the other way; inactive means flat fitted curve, though single readings scatter; tested in HEK293 cells; note: % is set by controls: 0 for no effect and ±100 for the full control effect; nearly all actives have a fitted effect of over 50% in size; luciferase read-out
# NS1 function inh – influenza NS1 inhibition. S. cerevisiae slowed by influenza A NS1, growth recovery by OD600. Potency, µM (titrated, usually from 46.1 µM), for the others: at the highest dose activity, positive = more growth. 270,000 compounds, 0.4% hits; active means well fitted rising curve with a large enough effect; inconclusive means small, poorly fitted or top-dose-only effect; inactive means no such curve, though single readings can be large or run the other way; note: nearly all actives have a fitted effect of over 50% in size
#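 S. cerevisiae expressing influenza A NS1, grown in glucose, washed, then diluted 1:100 into pH 6.0 -URA galactose medium with 23 nl compound. Growth recovery read as OD600; NS1-free strain serves as control.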
# MARV entry inh – blocks Marburg virus binding to or entry into cells; Marburg virus pseudotyped entry inhibition, cell reporter; control for the full effect not named in the record; about a third of the inactives were read at about 46 µM; Potency, µM (top dose mostly 37.8 µM), without a hit: at the highest dose activity change, negative = inhibition, actives largely listed as inhibitors; 300,000 compounds, 1.8% hits; active = well fitted inhibition curve with a large enough effect; inconclusive = small, poorly fitted or top-dose-only effect, or effect the other way; inactive = flat fitted curve, though single readings scatter; tested in HEK293 cells; about a fifth of its hits are not listed in these tables; note: % is set by controls: 0 for no effect and ±100 for the full control effect; luciferase read-out
# SARS PLpro yeast – SARS-CoV PLP inhibition in yeast | S. cerevisiae expressing SARS-CoV PLpro, growth rescue; control for the full effect not named in the record | Potency, µM (top dose mostly 32.9 µM), inactives show at the top dose activity, positive = growth rescue | 330,000 compounds, 0.19% hits | AID 485353; active means well fitted rising curve with a large enough effect; inconclusive means small, poorly fitted or top-dose-only effect; inactive means no such curve, though single readings can be large or run the other way; note: 0% is about no effect; nearly all actives have a fitted effect of over 55% in size; growth read by luminescence after 48 h
# RE007 growth inh – less growth of the S. pombe RE007 Vpr strain. 360,000 compounds, 0.21% hits. AID 651644. Potency, µM (doses to about 92.2 µM), without a hit: at the top dose activity change, negative = less growth. S. pombe RE007 Vpr strain, BacTiter-Glo ATP luminescence, 24 h; control for the full effect not named in the record; active = well fitted falling curve with a large enough effect; inconclusive = small, poorly fitted or top-dose-only effect; inactive = no such curve, though single readings can be large or run the other way;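 note: % is set by controls: 0 for no effect and ±100 for the full control effect; nearly all actives have a fitted effect of over 50% in size; the assay follows cell death caused by Vpr and the record does not say whether a fall means rescue or toxicity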
#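 Fission yeast strain RE007, carrying one chromosomally integrated HIV-1 vpr copy, was seeded at OD 0.01 in PMG+AL medium with 23 nL pinned compound. After 24 h at 30 °C and 99% humidity, viability was read by BacTiter-Glo luminescence.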
# Cruzain Triton – cruzain (T. cruzi) inhibition with detergent; purified cruzain, Z-FR-AMC fluorescence, 0.01% Triton; Potency, µM, for the others: max response, negative = inhibition, most hits filed as inhibitors; 200,000 compounds, 0.43% hits; AID 1478;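 note: plate controls were neutral wells for no effect and buffer without enzyme for full effect; nearly all actives have a fitted effect of over 40% in size; top concentration of the series not given in the record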
#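 In this qHTS format, compounds are incubated with 1.5 nM cruzain for 15 min at room temperature before 2 uM Z-FR-AMC is added. Release of AMC is followed at 360/450 nm, and progress is taken as the 60 s fluorescence difference.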
# The depositor's hits bear a star; ? = inconclusive; / = no result given; & = joins results of further samples; [ ] = remark or other dose. Unless noted, calls come from the whole dose curve; as a rule, active = well fitted curve in the direction sought with a large enough effect; inconclusive = small, poorly fitted or top-dose-only effect, or another doubt; inactive = no such curve, though single readings can be large; an effect the other way counts as inactive or inconclusive. Potency is the fitted concentration of half-maximal effect.
SMILES,Cruzain noTriton,StopGo reporter,LASV entry inh,NS1 function inh,MARV entry inh,SARS PLpro yeast,RE007 growth inh,Cruzain Triton
CCCOc1ccc(CC2C(=O)Nc3ccc(Br)cc32)cc1 (centres undefined),0.1%,-11.1%,/,/,7.7%[46.1 µM],/,/,-13.3%
O=C(Cc1ccc([N+](=O)[O-])cc1)N1N=C(c2ccncc2)CC1(O)C(F)(F)F (centres undefined),/,-22.6%,13.8%,/,-6.7%,0.9%,5.2%,/
Cc1nnc(NC(=O)C2CCN(C(=O)c3ccco3)CC2)s1,/,18.1%,0.5%[46.1 µM],-7.3%,-0.8%&-0.8%[46.1 µM],-0.5%,0.2%,/
CC(C)NC(=O)/C(C#N)=C\c1ccc(N(C)C)o1,/,58.6%[activator],-13.4%,-9.3%,11.6%[46.1 µM],-1.0%,-19.9%,/
CCCCn1c(C)cc2cc(O)ccc21,?,-5.2%,-24.9%,10µM*,?,-8.6%,-18.0%,2.0%
CCn1cc([N+](=O)[O-])c(C(=O)Nc2ccc(Br)cn2)n1,13.2%,44.5%[activator],-8.9%,-6.9%,3.5%,1.5%,-1.2%,-3.5%
CCOC(=O)c1c(C)[nH]c(C)c1S(=O)(=O)NCC1CCN(Cc2cccc(Cl)c2)CC1,/,-23.2%,/,-9.3%,/,5.4%,-2.6%,/
Cc1nc2ccc(NC(=O)c3cccnc3)cc2s1,/,30.0%,/,/,1.6%[46.1 µM],-2.9%,-23.9%,/
CCCSc1nnc(-c2ccccc2NC(=O)CC)c(=O)[nH]1,5.4%,38.1%[activator],11.3%,3.6%,7.7%[46.1 µM],0.4%,3.1%,1.1%
O=C(CCS(=O)(=O)c1cccs1)N1CCCC1,-6.7%,48.5%[activator],?,5.9%,11.1%,0.1%,6.3%,4.5%
COc1ccccc1OCCC(=O)OCC(=O)Nc1ccc(Br)cc1F,/,6.6%,-0.5%,/,1.3%[46.1 µM],-1.0%,-13.9%,/
O=C(NC(=S)NC1C2CC3CC(C2)CC1C3)C12CC3CC(CC(C3)C1)C2 (centres undefined),?,-17.4%,-2.4%,0.8%,?,-2.7%,19.9%,2.6%
CCC(=O)c1ccc(OCC(=O)Nc2nc(C)cs2)cc1,/,0.0%,-2.2%,/,-10.3%,-14.2%,17.6%,/
O=C(Cn1nc(Cl)nc1Cl)c1ccc(F)cc1,/,8.3%,/,9.3%,/,-0.8%,10.0%,/
CC(=O)C(C)Oc1ccc2c3c(c(=O)oc2c1)CCCC3 (centres undefined),3.7%,6.1%,26.1%,-31.9%,?,-3.9%,-2.1%,-5.9%
COc1ccccc1N(CC(O)CN(c1ccccc1)S(C)(=O)=O)S(=O)(=O)c1ccccc1 (centres undefined),?,1.1%,-4.2%,-17.0%,2.0%&-7.7%,5.5%,-0.2%,2.0%
Cc1c(C(=O)O)sc2nc(/C=C/c3cccc(O)c3)[nH]c(=O)c12,/,1.8%,?,1.9%,-14.7%[46.1 µM],-2.8%,-5.5%,/
Cc1c(Cl)c([N+](=O)[O-])nn1CCCC(=O)Nc1c(Cl)cccc1Cl,8.5%,-19.2%,-14.9%,3.1%,?,14.5%,-0.1%,-3.5%
Cc1cc(C)c(S(=O)(=O)N2CCCOC2CNC(=O)C(=O)NCCC2=CCCCC2)c(C)c1 (centres undefined),18.0%,-18.7%,-1.8%,19.0%,?,-5.8%,10.3%,-1.7%
O=C(Nc1ccc(NC(=S)NC(=O)C(c2ccccc2)c2ccccc2)cc1)c1ccccc1,/,?,?,/,?,/,-0.8%,/
O=c1c(-c2ccccc2)c(O)c2c(n1-c1ccccc1)CCCC2,1.8%,-23.3%,?,-7.7%,-1.4%,22.7%,4.4%,-1.5%
NC(N)=N/N=C/c1ccc(OCc2ccccc2Cl)cc1,-12.6%,?,?,-20.6%,?,-22.1%,3.3%,-4.1%
CCC1Cc2c(nc(N)c3c(N)nc(N4CCCCC4)c(C#N)c23)O1 (centres undefined),/,-23.3%,?,4.1%,?,-9.4%,-3.7%,/
CCc1ccc(N2Cc3ccccc3C2)cc1,/,27.0%,/,5.6%,/,-3.2%,-10.9%,/

# 3 successive compounds out of the list so far, for reference:
SMILES,Cruzain noTriton,StopGo reporter,LASV entry inh,NS1 function inh,MARV entry inh,SARS PLpro yeast,RE007 growth inh,Cruzain Triton
O=c1c(-c2ccccc2)c(O)c2c(n1-c1ccccc1)CCCC2,1.8%,-23.3%,?,-7.7%,-1.4%,22.7%,4.4%,-1.5%
NC(N)=N/N=C/c1ccc(OCc2ccccc2Cl)cc1,-12.6%,?,?,-20.6%,?,-22.1%,3.3%,-4.1%
CCC1Cc2c(nc(N)c3c(N)nc(N4CCCCC4)c(C#N)c23)O1 (centres undefined),/,-23.3%,?,4.1%,?,-9.4%,-3.7%,/

# New compounds follow.
SMILES,Cruzain noTriton,StopGo reporter,LASV entry inh,NS1 function inh,MARV entry inh,SARS PLpro yeast,RE007 growth inh,Cruzain Triton
CC1(C)CC(=O)C=C(Nc2cccc(F)c2)C1,/,-17.1%,14.7%[46.1 µM],0.4%,3.3%[46.1 µM],-1.1%,-2.6%,/
CCC(C(=O)NCc1ccco1)n1nc(C)c2c(C)n(-c3ccc(C)cc3)nc2c1=O (centres undefined),-11.4%,?,-1.5%[46.1 µM],16.5%,/,1.5%,-8.5%,-1.9%
COc1ccc(-c2nc(S(=O)(=O)c3ccc(Cl)cc3)c(N3CCCCCC3)o2)cc1,6.9%,14.3%,-7.5%[46.1 µM],/,4.2%[46.1 µM],/,/,-2.2%
Cc1cc(=O)oc2c(C(=O)/C=C/c3ccccc3)c(O)ccc12,-13.9%,-23.5%,2.1%,-2.5%,?,-5.2%,-1.6%,1.1%
O=C(Nc1ccc2ccccc2c1)c1ccccc1O,/,-60.8%,?,-40.4%,2.51µM*,-5.8%,-18.6%,/
N#CCc1nn(-c2ccc(Cl)cc2)c(N)c1C#N,?,-3.4%,-13.2%,6.1%,-14.0%,8.0%,6.4%,-0.8%
COC(=O)c1ccc2[nH]c([C@H](C)O)c([C@H](C)O)c2c1,/,-12.0%,/,-1.6%,/,1.7%,8.1%,/
Cn1c(NCCO)nc2c1c(=O)n(Cc1ccc(F)cc1)c(=O)n2C,/,-3.4%,-1.8%,3.4%,7.7%,2.4%,6.2%,/
Cc1ccnc(SC2CC(=O)N(c3ccc(F)cc3)C2=O)n1 (centres undefined),/,-2.7%,14.9%,8.8%,1.6%,-1.1%,8.1%,/
CC(CCN1CCC(n2nccc2NC(=O)c2ccccc2Cl)CC1)c1ccccc1 (centres undefined),/,-12.5%,/,11.2%,/,4.9%,8.4%,/
Cc1ccc2cc(C#N)c(N3CCN(C(=O)c4cccs4)CC3)nc2c1,/,31.6µM*,?,-1.7%,?,-1.5%,-1.6%,/
CN(C(=O)COC(=O)c1ccc2[nH]c3c(c2c1)CCCC3)C1CCS(=O)(=O)C1 (centres undefined),/,-8.8%,0.8%,/,15.0%,-0.9%,-2.6%,/
COc1ccc(N2CCN(C(=O)C3Cc4ccccc4CN3C(=O)c3ccccc3)CC2)cc1 (centres undefined),/,41.6%[activator],16.5%,/,6.6%[46.1 µM],-0.8%,0.0%,/
CCOC(=O)c1cc2c(=O)n3ccccc3nc2n(Cc2ccccc2Cl)c1=N,1.0%,/,/,1.0%,/,1.0%,/,-23.2%
Clc1ccc2c(c1)C(c1ccccc1Cl)=NCc1nncn1-2,-9.7%,2.2%,6.4%,-4.7%,-11.2%,10.9%,-3.9%,0.9%
COC(CC(=O)NNC(=S)Nc1ccccc1)OC,/,8.4%,1.3%[46.1 µM],/,1.3%[46.1 µM],-0.4%,-11.0%,/
CCc1noc(C)c1C(=O)NCCc1ccc(S(N)(=O)=O)cc1,/,-15.6%,15.2%,/,-1.9%[46.1 µM],-5.3%,5.0%,/
CNCC(O)COc1ccccc1 (centres undefined),-2.5%,-4.8%,15.4%,6.6%,20.5%,5.0%,-15.2%,5.3%
CC(C)(O)[C@@H]1Cc2c(ccc3ccc(=O)oc23)O1,?,-8.4%,5.4%,3.8%,4.4%,1.0%,-2.5%,0.5%
CC1CC(C(=O)Nc2ccccc2)C(=O)O1 (centres undefined),/,1.0%,18.2%,/,11.9%[46.1 µM],/,14.8%,/
COC(=O)c1ccc(CSc2ccccc2C)o1,-6.1%,-2.9%,18.4%,-40.6%,9.3%,-0.2%,11.3%,-1.4%
COc1ccccc1CC(NC(C)=O)C(=O)NC1CCN(C(=O)Nc2ccc(F)cc2)CC1 (centres undefined),/,-8.0%,12.5%[46.1 µM],1.4%,-10.9%[46.1 µM],-0.2%,10.2%,/
CC(=O)Nc1cc(C(=O)N2CCC3(CC2)OCCO3)ccc1Sc1ccc(F)cc1,/,9.0%,-5.0%[46.1 µM],/,?,-3.8%,2.3%,/
CO/N=C/NC(=O)C1=NOC(CNc2ncc(C(F)(F)F)cc2Cl)C1 (centres undefined),-6.8%,-21.0%,0.6%,12.1%,25.8%,/,58.0%,-3.8%
CCOc1cc(C(=O)N2CCCN(C)CC2)cc(OCC)c1OCC,/,1.8%,0.4%,1.3%,?,/,-16.8%,/
Cc1c(NC(=O)C(C)OC(=O)CCC2CCCC2)c(=O)n(-c2ccccc2)n1C (centres undefined),/,-16.6%,/,3.8%,/,-1.1%,15.7%,/

# Part of the list above in order of SMILES length, high to low:
SMILES,Cruzain noTriton,StopGo reporter,LASV entry inh,NS1 function inh,MARV entry inh,SARS PLpro yeast,RE007 growth inh,Cruzain Triton
Cc1c(NC(=O)C(C)OC(=O)CCC2CCCC2)c(=O)n(-c2ccccc2)n1C (centres undefined),/,-16.6%,/,3.8%,/,-1.1%,15.7%,/
CC(=O)Nc1cc(C(=O)N2CCC3(CC2)OCCO3)ccc1Sc1ccc(F)cc1,/,9.0%,-5.0%[46.1 µM],/,?,-3.8%,2.3%,/
CCc1noc(C)c1C(=O)NCCc1ccc(S(N)(=O)=O)cc1,/,-15.6%,15.2%,/,-1.9%[46.1 µM],-5.3%,5.0%,/
CNCC(O)COc1ccccc1 (centres undefined),-2.5%,-4.8%,15.4%,6.6%,20.5%,5.0%,-15.2%,5.3%
